NPYLR7 agonist: activates Aedes aegypti NPYLR7 receptor; activation, % at 10 µM; HEK293T NPYLR7/Galpha15, GCaMP6s calcium fluorescence; hit rate 0.15% among 270,000; AID 1259423; in the data active = activation above about 40%;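 also: 0% = vehicle and 100% = reference agonist at the receptor; some compounds past the cut are filed as inactive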
NPYLR7 agonist max-min: further read-out of NPYLR7 agonist, marked with its call; activation, %; measured here: Max-Min RFU normalised activation; some inactives read as strong as hits;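 span of the calcium signal over five minutes; 0% = vehicle and 100% = native peptide agonist; compound fluorescence can raise it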
An asterisk follows results filed as active; & = joins results of further samples. Only part of the results is shown. The share of hits here may be higher or lower than overall.

cpd	SMILES	NPYLR7 agonist	NPYLR7 agonist max-min
1	Cc1ccc2c(c1)c(CNS(=O)(=O)NCc1ccccc1)nn2C	2	18
2	COC(=O)CCC(C)(C)NC(=O)c1csc(C)n1	-1	-2
3	CC(C)NC(=O)C1(C)CCN1C(=O)C/C=C/c1ccccc1 (stereo not drawn)	14	16
4	Clc1ccc(-c2nccn2CCC2CCCCO2)cc1 (stereo not drawn)	1	4
5	CCOCCCN(CC(=O)N1CCc2sccc2C1c1ccccc1)C(=O)c1ccc(Cl)c(Cl)c1 (stereo not drawn)	-4	6
6	C/C=C/Cc1nnc(C(=O)N2CCCC(CO)(CC(C)C)C2)o1 (stereo not drawn)	-3	-1
7	CN1[C@@H](CCC(=O)N2CCc3ccccc32)CNC(=O)[C@@H]2[C@H]1CCN2Cc1ccc(C(=O)O)cc1	-11	-15
8	COc1cccc(-c2cnc(-c3cccc(CNC(=O)c4ccc(N(C)C)cc4)c3)[nH]2)c1	-4	5
9	CC(CSc1nc2ccccc2o1)Cn1c(N2CCOCC2)nc2c1c(=O)[nH]c(=O)n2C (stereo not drawn)	13	7
10	CC(C)C(NS(=O)(=O)c1ccc(Br)s1)C(=O)O (stereo not drawn)	13	12
11	CN(Cc1ccccc1O)C(=O)CSc1nnc(N)s1	-1	-9
12	CC(=O)NCCC(=O)N(Cc1ccccc1F)c1ccc(F)cc1	5	5
13	COc1ccc(N(CCC(N)=O)CC(=O)N(C(C)C)C(C)C)cc1	-3	2
14	CCc1cccc2c(C(=O)CSc3nnc(-c4cccnc4)o3)c[nH]c12	8	5
15	CC(=O)Nc1ccc(Sc2cc(NCc3cccnc3)ncn2)cc1	-5	-7
16	CCN(CC)C(=O)C1CCCN(C(=O)c2cn(CCN3CCCCC3)nn2)C1 (stereo not drawn)	1	1
17	CC(Cn1cccn1)C(=O)N1CCN(C)C2(CCN(C)CC2)C1 (stereo not drawn)	4	3
18	CCc1nc2ccc(C(=O)NC(C)(C)C)cn2c1N(C)CCCc1ccccc1	13	8
19	CCn1c(-c2nccn2-c2ccc3n[nH]nc3c2)nc2ccccc21	8	7
20	Cc1cccc(CSC2=NCCN2S(C)(=O)=O)c1	1	9
21	CC(C)CN(c1cccc(O)c1)S(=O)(=O)c1ccc2[nH]c(=O)oc2c1	3	4
22	CCc1ccccc1NC(=O)N1CCC2(CC1)C(=O)NCCN2C	11	1
23	CC(Cn1ccnc1)NS(=O)(=O)c1ccccc1 (stereo not drawn)	3	-1
24	c1csc(-c2noc(CSc3nnc(-c4c[nH]c5ccccc45)o3)n2)c1	9	16
25	Cc1cccnc1C1=NOC(C)C(=O)N1CCCc1ccccc1 (stereo not drawn)	-5	-6
26	Cc1cc(C(=O)CN2C(=O)C(=O)N(Cc3ccco3)C2=O)c(C)n1Cc1cccs1	-1	-1
27	O=C(Nc1ncccc1-c1nc2ccccc2o1)c1ccc(Cl)c(Cl)c1	6	21
28	CCOC(=O)C1(C)CCN1C(=O)Cc1ccc(OC)c(OC)c1 (stereo not drawn)	-4	-10
29	COC(=O)C1C(c2ccc(N(C)C)cc2)c2c([nH][nH]c2=O)CC1(C)O (stereo not drawn)	-1	30
30	COc1ccc(-n2ncc3c2CC(C)(C)CC3NC(=O)c2cc3ncccn3n2)cc1 (stereo not drawn)	2	-6

Profiles, quoted from the list. Screens in order: NPYLR7 agonist	NPYLR7 agonist max-min
Results for `CCc1cccc2c(C(=O)CSc3nnc(-c4cccnc4)o3)c[nH]c12` → 8	5
Results for `CCn1c(-c2nccn2-c2ccc3n[nH]nc3c2)nc2ccccc21` → 8	7
Results for `CC(Cn1cccn1)C(=O)N1CCN(C)C2(CCN(C)CC2)C1` (stereo not drawn) → 4	3
Results for `c1csc(-c2noc(CSc3nnc(-c4c[nH]c5ccccc45)o3)n2)c1` → 9	16
Results for `CC(C)NC(=O)C1(C)CCN1C(=O)C/C=C/c1ccccc1` (stereo not drawn) → 14	16

Carrying on:
cpd	SMILES	NPYLR7 agonist	NPYLR7 agonist max-min
31	CCc1cccc2c(C(CC(=O)NCc3ccco3)c3cccc(OC)c3)c[nH]c12 (stereo not drawn)	11	10
32	CC1(C(=O)NCc2cccnc2)CCN1CC1CCCCC1 (stereo not drawn)	4	1
33	CN(C)C1CCCN(C(=O)Cc2ccc(O)c(F)c2)CC1 (stereo not drawn)	6	3
34	CC(Sc1nc2ccccc2c(=O)n1C)C(=O)c1c[nH]c2ccccc12 (stereo not drawn)	-4	-3
35	Cc1cc(C)n(-c2cccc(-c3ncccc3NC(=O)C(C)C)c2)n1	4	0
36	O=C(c1cc(CN2CCC(O)CC2)on1)N1CCc2sccc2C1	9	-4
37	O=C(Nc1ccccc1C(=O)N1CC=C(c2ccccc2)CC1)c1ccco1	9	5
38	O=C(c1cnc(NCC2COc3ccccc3C2)c(Cl)c1)N1CCCCC1 (stereo not drawn)	1	-1
39	COc1ccc(C2C(C(=O)OC(C)C)=C(C)N=c3sc(=Cc4cccnc4)c(=O)n32)cc1 (stereo not drawn)	13	17
40	NS(=O)(=O)c1ccc(-n2cccc2/C=C2/C(=O)NN(c3ccc(Br)cc3)C2=O)cc1	1	0
41	Cc1cc2nc(N(CCN3CCOCC3)C(=O)C3COc4ccccc4O3)sc2cc1C (stereo not drawn)	10	5
42	COc1c(C)cnc(CSc2nnnn2CC(F)(F)F)c1C	-11	-10
43	O=C(Nc1ccc(F)cc1)N1CCC(C(O)c2ccccc2)CC1 (stereo not drawn)	3	1
44	O=C(CN1C(=O)c2ccccc2C1=O)N=C1NC(=O)CS1	-10	-16
45	O=C(NCC(=O)N1CCc2ccccc2C1)C1CC1(c1ccccc1)c1ccccc1 (stereo not drawn)	-6	-13
46	CSc1ccc2c(c1)C(N1CCN(C)CC1)Cc1ccccc1S2 (stereo not drawn)	-5&-5&0	-8&-10&-7
47	COC(=O)c1cccc(CC2(C)C(=O)Nc3ccc(-c4ccco4)cc32)c1 (stereo not drawn)	0	-1
48	O=C1Cc2cc(Nc3ncncc3Br)ccc2N1	-1	4
49	COc1cccc(-n2ncc3c2C(CC(C)C)N(CC(=O)OC(C)(C)C)C3=O)c1 (stereo not drawn)	16	5
50	COc1ccc(-n2nnc3c(N4CCN(C(=O)c5cc6ccccc6o5)CC4)ncnc32)cc1	-7	-17
51	Cc1c(C)n2c3c(=O)n(C)c(=O)n(C)c3nc2n1-c1ccc(O)cc1	0	13
52	CCCC(=O)N1CCN(c2ccc(NC(=O)c3ccc4c(c3)OCO4)cc2Cl)CC1	-4	-8
53	COc1ccccc1C(=O)Oc1ccccc1-c1nc2cc(C)ccn2c1NCc1ccccc1	3	6
54	Clc1ccc(CCN2CN(Cc3ccccc3)c3nc4ccccc4n3C2)c(Cl)c1	-1	-4
55	COc1ccc(-c2csc(=Nc3cc(OC)cc(OC)c3)n2NC(=O)C(C)Oc2ccc(Cl)cc2C)cc1 (stereo not drawn)	-8	-12
56	C=CCC(O)(CC=C)CNC(=O)CCc1nnc(Cc2cccc(C)c2)o1	5	6
57	COc1ccc(CCNC(=O)CCN2C(=O)c3ccccc3C2=O)cc1OC	7	-1
58	CCCCn1c(C(=O)Nc2ccc3c(c2)OCO3)cc2c(=O)n(C)c(=O)n(C)c21	-2	-3
59	O=C(N[C@H]1C[C@H]2C(=O)NCC(=O)N2C1)c1ccc2[nH]c3c(c2c1)CCCC3	4	3
60	COC(=O)C(C)C(NCc1ccncc1Cl)c1ccccc1 (stereo not drawn)	-3	-4
61	NC(=O)c1cccnc1N1CCN(c2nccc(CCC(F)(F)F)n2)CC1	8	6
62	Cc1ccc(CNC(=O)C2CC(=O)N(Cc3ccco3)C2)c(C)c1 (stereo not drawn)	8	5
63	Cc1ccc(Nc2nc(NCc3ccco3)nc3nccnc23)cc1	3	7
64	CN1CCN(C(=O)CC2(C)N=C(c3ccccc3)N(C)O2)CC1 (stereo not drawn)	6	5
65	COc1ccc(CC2CCCN2C(=O)c2c(O)cc(F)cc2F)cc1 (stereo not drawn)	4	1
66	C=CCN1C(=O)/C(=C\C=C\c2ccc(N(C)C)cc2)SC1=S	0	-7
67	CCCCc1ccc(-c2nc(C=Nc3cccc(Cl)c3)c(O)o2)cc1	3	-1
68	Cc1ccc(CN(C)C(=S)Nc2cccc(Cl)c2C)o1	-9	-7
69	Cn1ccnc1CN1CCN(C(=O)c2cn(Cc3ccc(Cl)cc3)nn2)CC1	7	4
70	COCCNC(=O)C1(C)CCCN(Cc2cc(C(F)(F)F)ccc2Cl)C1 (stereo not drawn)	-1	-4
71	Cc1ccn2c(=O)c(NC(=O)COc3ccc(Cl)cc3)c(C)nc2c1	-8	-7
72	Cc1cccc(-c2cc(N)n(-c3ccc(C(=O)Nc4ccc(C(C)(C)C)cc4)cc3)n2)c1	-7	-10
73	CCOc1c(C=[N+](C)C)c2ccccc2n1CC	3	7
74	COc1cc2c(cc1CN1CCN(c3cc(=O)[nH]c(N)n3)CC1)CCC2	2	-2
75	O=C(CSc1nnc2c(n1)[nH]c1ccccc12)Nc1ccccc1	-8	-11
76	CCN(CC)C(=O)Oc1ccc2c(ccn2Cc2ccccc2Br)c1-c1ccc(OC)c(OC)c1	12	18
77	CCCc1ccc(S(=O)(=O)N2CCC3(CC2)[C@H](C(=O)NC)[C@@H](OC(N)=O)C(=O)N3C)cc1	28	25
78	CCn1cc(NC(=O)C2(c3ccccc3Cl)CCOCC2)cn1	3	2
79	Fc1ccc(OCCSc2nnc(NC3CC3)s2)cc1	3	9
80	COc1ccc(C(=O)N2CCC2(C)C(=O)NC(C)C)cc1 (stereo not drawn)	-17	-11
81	C=CCN1CCc2cc(OC)c(OC)cc2C1CNC(=O)C(C)C (stereo not drawn)	-8	-5
82	C=CCn1cc(CN2CCCC(c3nc(-c4cccnc4)no3)C2)c(C)n1 (stereo not drawn)	-7	-15
83	CCCCSc1nnc2n1CCN2c1ccc(F)cc1	6	8
84	CCOc1ccc(NC(=O)Nc2ccc(N3CCc4ccccc4C3)c(C(=O)NCCCOC)c2)cc1	-1	13
85	CSC=CC=CC(=O)N=c1c(C#N)cc2c(=O)n3cccc(C)c3nc2n1CCCOC(C)C	0	-2
86	COc1cc(OC)cc(C2NC(=O)N(C)C3=C2C(=O)N(C2CCCCC2)C3)c1 (stereo not drawn)	-4	-2
87	CC(Nc1cc(N(C)C)ncn1)c1cc(F)cc(F)c1 (stereo not drawn)	-3	0
88	Cc1cc(N2CCN(c3ccccc3)CC2)nc(-n2nc(C)cc2C)n1	4	3
89	Fc1ccc(-c2ccc(-c3nn4c(-c5ccccc5)nnc4s3)o2)cc1	-5	-4
90	CSc1nnc2ccc(-c3ccccc3)nn12	-16	-9

Five compounds already listed, arranged by molar mass, descending.
cpd	SMILES	NPYLR7 agonist	NPYLR7 agonist max-min
40	NS(=O)(=O)c1ccc(-n2cccc2/C=C2/C(=O)NN(c3ccc(Br)cc3)C2=O)cc1	1	0
52	CCCC(=O)N1CCN(c2ccc(NC(=O)c3ccc4c(c3)OCO4)cc2Cl)CC1	-4	-8
37	O=C(Nc1ccccc1C(=O)N1CC=C(c2ccccc2)CC1)c1ccco1	9	5
56	C=CCC(O)(CC=C)CNC(=O)CCc1nnc(Cc2cccc(C)c2)o1	5	6
12	CC(=O)NCCC(=O)N(Cc1ccccc1F)c1ccc(F)cc1	5	5

(next part)
cpd	SMILES	NPYLR7 agonist	NPYLR7 agonist max-min
91	Cn1cc(SCC(=O)N2CCCc3ccccc32)c2ccccc21	-4	-4
92	CCN1C(=O)C(=O)N(CC(=O)c2cc(C)n(C3CC3)c2C)C1=O	1	7
93	Cc1cccc(-c2nc(Cn3c(=O)n(C(C)C)c(=O)c4ccccc43)c(C)o2)c1	-2	-6
94	Cc1cccc(C(=O)Nc2cc(-c3nc4ccccc4o3)ccc2C)c1	-4	-10
95	Cc1oc(-c2ccc(Cl)cc2)cc1C(=O)N1CCN(c2nccc(-c3cccc(C(F)(F)F)c3)n2)CC1	14	14
96	CCCn1c(SCc2nnc(-c3ccco3)o2)n[nH]c1=O	1	2
97	O=C(NCCc1ncno1)Nc1ccc(C(F)(F)F)cc1	2	1
98	COc1ccccc1NS(=O)(=O)c1cc(NS(=O)(=O)c2cccc3cc(C)cnc23)ccc1C	-1	22
99	CCCc1c(C)nn(-c2ccc(C(=O)NC(c3ccccc3)c3ccc(Cl)cc3)cc2)c1C (stereo not drawn)	-15	-29
100	COc1ccc(C(C2Sc3nc(C)nn3C2=O)N2CCC(C(N)=O)CC2)cc1 (stereo not drawn)	0	-4
101	O=C(O)CCC(C(=O)O)N1C(=O)c2ccccc2C1=O (stereo not drawn)	6	10
102	Cc1ccc(-n2nc(-c3ccccc3)cc2C(=O)NCCc2ccccc2)c(C)c1	0	11
103	CCCCCCCCc1ccc(C(=O)N2CCN(Cc3cc(=O)c(OCc4ccc(C(C)(C)C)cc4)co3)CC2)cc1	5	2
104	CCOCCOc1nc(-c2ccc(C)cc2)n(-c2ccc(NC(=O)c3c(OC)cccc3OC)cc2)n1	17	13
105	COc1ccccc1N=P1(N2CCOCC2)C(=C2N(C)c3ccccc3C2(C)C)C=NN1C (stereo not drawn)	1	0
106	COc1ccc(C2CCCN2C(=O)COc2ccc(Br)cc2Cl)cc1 (stereo not drawn)	-2	-7
107	O=C(NCC1CCCO1)c1cnn2c1NC(c1ccco1)CC2C(F)(F)F (stereo not drawn)	-1	-8
108	COCCN(Cc1c(-c2ccccc2)noc1N1CCCCC1C)C(=S)Nc1ccc(F)cc1 (stereo not drawn)	-5	-1
109	COCCN(Cc1csc(COc2ccc(C)c(C)c2)n1)C(=O)C1CCCC1	-1	6
110	Cc1nc(CC(=O)N2CCC(c3ccccc3C(=O)O)C2)cs1 (stereo not drawn)	8	-1
111	CC1CN(C(=O)CCC2CCCC2)C(C)CO1 (stereo not drawn)	6	6
112	CC(=O)c1ccc(OCc2nnsc2Cl)cc1	-1	-3
113	COc1cccc(OC)c1OCCCOc1ccc(Br)cc1	4	-1
114	COc1ccc(CN2CCC(C(=O)NC(c3nc(OC)cc(OC)n3)c3ccccc3C)CC2)cc1 (stereo not drawn)	5	3
